# AmpC inh no det – Promiscuous and Specific Inhibitors of AmpC Beta-Lactamase (assay without detergent); P00811; AID 585, 2007; AmpC nitrocefin hydrolysis, absorbance 480 nm, no detergent; potencies from a single point are estimates; Potency, µM (top dose mostly 28.7 µM), inactives show top-dose activity change, negative = inhibition; 1.8% of 71,000 active; active = falling curve, for most hits resting on a single point; inconclusive = weak or doubtful change; inactive = flat or rising curve; note: % of control where 0% means no effect; about half of the hits show no inhibition at the top dose; a quarter of the inactives give rising signals
# Target sequence (P00811 whole entry, looked up): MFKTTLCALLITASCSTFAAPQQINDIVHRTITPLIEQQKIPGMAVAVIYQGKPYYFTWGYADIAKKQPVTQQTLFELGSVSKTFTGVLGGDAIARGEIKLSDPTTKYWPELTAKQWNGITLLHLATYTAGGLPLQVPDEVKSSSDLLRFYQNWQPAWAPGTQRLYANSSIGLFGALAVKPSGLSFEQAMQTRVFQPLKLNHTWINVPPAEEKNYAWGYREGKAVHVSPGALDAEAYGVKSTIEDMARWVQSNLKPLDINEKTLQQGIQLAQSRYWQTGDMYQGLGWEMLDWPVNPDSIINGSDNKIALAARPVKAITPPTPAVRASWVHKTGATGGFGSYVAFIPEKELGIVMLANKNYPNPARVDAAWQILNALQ
#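 Enzyme, pH 7.0 phosphate. Compound titrations were pre-incubated with AmpC for 15 min at room temperature before nitrocefin (stock 800 uM) addition; product formation was recorded at 480 nm every 20 s for 4 min.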
# The depositor's hits bear a star; & = joins results of further samples; [ ] = another dose, or the depositor's remark. Potency is the fitted concentration of half-maximal effect. Only part of the results is shown; count on the stated rates, not on these rows.
SMILES,AmpC inh no det
O=C(CCCn1c(=S)[nH]c2cc3c(cc2c1=O)OCO3)NC1CC1,2%
O=C(OCC#CCSc1nnc(-c2ccncc2)o1)c1cccs1,27%
O=C(c1cc(C(F)(F)F)cc(C(F)(F)F)c1)N1CCC2(CCN(Cc3ccccc3)CC2)CC1,102%
Cc1occc1C(=O)NC(C)CCc1ccccc1 (stereo not drawn),11%
Cc1cc(NC(=O)CC(CN(C)S(=O)(=O)c2ccccc2)c2ccccc2)no1 (stereo not drawn),-17%
CCOc1cc(C2/C(=C(/O)c3ccc(OC(C)C)cc3)C(=O)C(=O)N2CCCOC)ccc1O (stereo not drawn),-11%
Cc1sc2ccccc2[n+]1CCC(=O)O,3%[5.75 µM]
CCCC(=O)Nc1ccccc1NC(=O)CCC,-11%
CCc1ccc2nc(NC3=NCN(CCCN4CCOCC4)CN3)nc(C)c2c1,18%
C=CCN(CC(=O)NCc1ccccc1)C(=O)c1csnn1,1%
COc1ccc(OCc2nnc(SC3CCOC3=O)n2-c2ccccc2)cc1 (stereo not drawn),69%
CC(C)OC(=O)c1c(F)c(F)c(N2CCOCC2)c(F)c1F,13%
COc1ccccc1-n1cnc2cc(C(=O)NCC3CCCO3)ccc21 (stereo not drawn),14%
CCCN(C/C=C\I)[C@@H]1CCc2ccc(O)cc2C1,8%
CCOC(=O)c1cc2c(ccn2C)n1CC(=O)N1CCN(c2ccccc2)CC1,59%
Cc1c(Cl)cccc1NC(=O)CN1CCN(CCO)CC1,-10%
CCOC(=O)CN1CC23C=CC(O2)C(C(=O)NCCc2ccccc2)C3C1=O (stereo not drawn),9%
c1ccc2c(c1)nc(Nc1ccc3c(c1)OCO3)c1nnnn12,-5%
O=C(c1ccco1)N1CCN(C(=O)C2CCN(S(=O)(=O)Cc3ccccc3)CC2)CC1,38%
c1ccc(OCc2nn3c(Cn4nnc5ccccc54)nnc3s2)cc1,16%
Cc1oc(-c2ccccc2)cc1C(=O)Nc1cccc(C(=O)O)c1,-19%
CC(=O)Nc1ccc(S(=O)(=O)N2CCN(C34CC5CC(CC(C5)C3)C4)CC2)cc1,39%
COc1cccc(CN2CCN(C(=O)c3ccco3)CC2)c1OC,17%
O=C(O)Cc1coc(-c2ccc(F)cc2)n1,-2%
COCCn1nnnc1C(c1cccc(OC)c1OC)N1CCN(C2CCCCC2)CC1 (stereo not drawn),8%

# Later entries
SMILES,AmpC inh no det
O=C(CSc1ncnc2ccccc12)Nc1ccc2c(c1)OCO2,-6%
CCOc1ccc(C(=O)N2CCc3cc(OC)c(OC)cc3C2)cc1OCC,60%
CCNc1nc(CC)nc2c1oc1ccccc12,21%
c1ccc(N2CCN(c3nnc(Cc4cccnc4)c4ccccc34)CC2)nc1,47%
O=S(=O)(Cc1ccc(Cl)cc1)Nc1ccc2c(c1)OCO2,-20%
Cc1onc(-c2ccccc2Cl)c1C(=O)NCc1cccs1,-5%
Cc1ccccc1Cn1c(=O)n(CCCC(=O)NCc2ccco2)c(=O)c2ccccc21,31%
COc1ccc(N(C)S(=O)(=O)c2cccc(C(=O)Nc3ccc(-n4cnnn4)cc3)c2)cc1,-15%
O=C1Cn2c(nc3ccccc32)-c2ccccc2N1,-20%
CC(NC(=O)C1CC2CCCC(C1)C2=O)c1ccccc1 (stereo not drawn),9%
Cc1occc1-c1nnc(SCC(=O)NCCc2ccccc2)n1Cc1ccccc1,73%
CCc1nc(SCc2ccc(C(=O)OC)o2)c2c(=O)n(C)c(=O)n(C)c2n1,-1%
COc1ccc(Oc2ncc3nc(-c4cc(F)cc(F)c4)c(=O)n(C4CC4)c3n2)cc1,22%
CCOc1ccccc1Oc1cn[nH]c1-c1ccc(OC)cc1O,4%
CCC(=O)/C=C/C1C(C)=CCCC1(C)C (stereo not drawn),-6%
CCOc1ccc(S(=O)(=O)N2CCN(S(=O)(=O)c3ccc(OCC)cc3)C(C)C2)cc1 (stereo not drawn),44%
O=C(NCCCN1CCCCCC1)c1ccc(CS(=O)(=O)Cc2ccccc2F)o1,13%
Cc1ccccc1Cn1ccc(NC(=O)c2nc3ncccn3n2)n1,5%
COc1ccc(C(Cl)=C(c2ccc(OC)cc2)c2ccc(OC)cc2)cc1,-3%
Cc1ccc(N)c(C)c1,-10%
CC(=O)OCCN(Cc1ccccc1)Cc1ccc2c(c1)OCO2,10%
Cc1ccccc1-c1coc2cc(O)ccc2c1=O,-18%
O=C(O)CN(Cc1ccccc1)S(=O)(=O)c1ccc(F)cc1,4%
CCOC(=O)c1nn(-c2c(C)n(C)n(-c3ccccc3)c2=O)cc1O,-3%
Nc1c(C(=O)NCCN2CCOCC2)c2nc3ccccc3nc2n1Cc1ccco1,152%

# New compounds follow:
SMILES,AmpC inh no det
Cc1c(C(=O)NC(C)C)oc2c1-c1[nH]ncc1CC2,14%
Cc1ccc(C2SCC(=O)Nc3c2c(=O)[nH]n3C2CCOC(C)(C)C2)cc1 (stereo not drawn),-1%
COC(=O)COc1ccc(C(=O)OC)cc1,4%
COCCCNC(=O)CCCn1c(=O)c2ccccc2n(CC(=O)Nc2c(C)cc(C)cc2C)c1=O,4%
N[C@@]1(C(=O)O)CC[C@H](C(=O)O)C1,9%&17%&29%
Cc1cc(Cl)ccc1NC(=O)CSc1nnc(-c2ccncc2)n1Cc1ccco1,62%
CCOC(=O)c1[nH]c2ccc(OCC)cc2c1NC(=O)CN1CCC2(CC1)OCCO2,64%
COc1ccc(OCC(O)COc2ccc(C(=O)O)cc2)cc1 (stereo not drawn),-1%
O=c1cc(O)c2c(=O)[nH]c(=O)n(-c3ccccc3)c2[nH]1,-12%
O=C(COC(=O)c1ccccn1)Nc1nccs1,-4%
O=C(Nc1nc2n(n1)C(c1ccccc1)CC(c1ccc(Cl)cc1)N2)c1ccco1 (stereo not drawn),41%
COc1ccc(CCNc2oc(COc3ccc(F)cc3)nc2C#N)cc1,1%
Cc1ccccc1CN1C(=O)C(O)(CC(=O)c2ccncc2)c2ccccc21 (stereo not drawn),77%
CC(=O)Oc1ccccc1N1C(=O)c2ccc(C(=O)O)cc2C1=O,-4%
COc1ccc(C(=O)N2CCC3(CCCN(C(=O)NC(C)C)C3)CC2)cc1,7%
COC(=O)C1=CN(C(C)C)C=C(C(=O)OC)C1c1cc2c(cc1Br)OCO2,43%
c1ccc(N(c2ccccc2)c2nc(N3CCCC3)nc(-n3ccnc3)n2)cc1,36%
COc1cccc(NC(=O)NCCCN2CCN(c3ccc(F)cc3)CC2)c1,4%
CCN(CC)S(=O)(=O)c1ccc(NC(=O)CN(c2cccc(F)c2)S(C)(=O)=O)cc1,-2%
Cc1ccc(-c2[nH]c(=O)n3ccncc23)s1,-17%
O=C(CSc1nnnn1-c1ccccc1)N1CCN(C(=O)c2ccco2)CC1,20%
C/C(Cl)=C\CNC(C)c1ccccc1 (stereo not drawn),-6%
CCNC(=O)NC(C(=O)OC)C12CC3CC(CC(C3)C1)C2 (stereo not drawn),14%
COC1=CC(=O)OC(CCc2ccccc2)C1 (stereo not drawn),10%
C[C@](O)(c1ccccc1)c1nccc2ccccc12,1%[5.75 µM]

# Next structures.
SMILES,AmpC inh no det
S=c1oc(-c2ccncc2)nn1CCc1ccncc1,-1%
COc1ccc(NC(=O)Cc2ccc(Cl)cc2)cc1NC(=O)c1ccco1,-10%
O=C(NCc1ccccc1)NC1(C(=O)N2CCN(c3ccccc3)CC2)CCCCC1,3%
CCOC(=O)c1ccccc1NC(=O)C1COc2ccccc2O1 (stereo not drawn),3%
COc1ccc(Nc2nnc(Cc3ccc(Cl)cc3)c(=O)[nH]2)c(OC)c1,-4%
Cc1noc(C)c1-c1cncnc1NC1CC1,5%
Cc1cc(C(=O)COC(=O)CCCN2C(=O)c3ccccc3C2=O)c(C)n1C,65%
Cc1c(-n2cc(C(=O)O)c(=O)c3cc(F)c(N4CCCC4)c(F)c32)c(=O)n(-c2ccccc2)n1C,16%
O=C(Cn1c(NCCO)nc2ccccc21)c1ccco1,-12%
CC(C)CCNC(=O)CCCn1c(=O)[nH]c2ccc(Br)cc2c1=O,-2%
CC(C)n1c(-c2ccc(N(C)C)cc2)nc2ccccc21,27%
CCS(=O)(=O)N1CCC(C(=O)NCCCN2CCC(Cc3ccccc3)CC2)CC1,6%
CCOc1cc2c(cc1C(C)(C)C)NC(=O)CS2,21%
O=C1CCCC2=C1C(c1ccccc1O)C1=C(CCCC1=O)O2,15%
COC(=O)C1=C(C)N(C2CCCC2)C(=O)C1(NC(C)=O)C(F)(F)F (stereo not drawn),64%
CCN(CC)CCn1c2ccccc2c2nc(C)sc21,8%
Cc1cc(=O)[nH]c(SCC(=O)Nc2cccc(C(F)(F)F)c2)n1,-16%
Cc1ccc(S(=O)(=O)NC(=O)NCc2ccccn2)cc1,-16%
COC(=O)c1ccccc1NC(=O)Cn1cc(Br)cn1,-1%
CN(C)c1ccc(C(=N)c2ccc(N(C)C)cc2)cc1,16%
O=c1cc(N2CCC3(CC2)OCCO3)[nH]c(=O)n1-c1ccc(Br)cc1,7%
c1cncc(-c2nnc(SCc3nc4ccccc4[nH]3)o2)c1,-11%
O=c1[nH]c2ccc(Br)cc2c(-c2ccccc2)c1N1CCOCC1,15%
O=C(O)c1c[nH]c2ccc(S(=O)(=O)N3CCN(c4ccc(F)cc4)CC3)cc2c1=O,5%
Cc1ccc(N2C(=O)c3oc4ccccc4c(=O)c3C2c2cccc(O)c2)nc1 (stereo not drawn),27%

# Next section
SMILES,AmpC inh no det
CC(C)NC[C@H](O)c1ccc(NS(C)(=O)=O)cc1,20%
CCCC1(c2ccccc2)NC(=O)N(CC(=O)c2[nH]c(C)c(C(=O)OCC)c2C)C1=O (stereo not drawn),13%
Cc1c(NC(C)C)c(=O)n(-c2ccccc2)n1C,-10%[12.8 µM]
CCCCOc1ccc(-c2nc(-c3cccnc3)no2)cc1,-5%
COc1ccc(C(=O)NCc2cccnc2)cc1S(=O)(=O)N1CCOCC1,-12%
Cn1c(CCNC(=O)C(C)(C)C)nc2ccccc21,-10%
Cc1c(N=C/C=C/c2ccccc2)cnn1C,13%
COc1cc(S(=O)(=O)NCc2ccccc2)ccc1F,-4%
COc1ccc(OC)c(NC(=O)CSc2nnnn2-c2ccccc2F)c1,-1%
COc1ccc(C(c2nnnn2C(C)(C)C)N2CCN(c3nc4ccccc4s3)CC2)cc1 (stereo not drawn),110%
O=C(CNC(=O)Cn1ccc2ccccc2c1=O)NCCCN1CCCCCC1,28%
CN(C)CCNC(CC(=O)Nc1ccc(Cl)c(Cl)c1)C(=O)O (stereo not drawn),-9%
O=C(Nc1cccc2ccccc12)N1CCN(c2ccc(F)cc2)CC1,-5%
O=C1c2ccccc2C(Nc2ccc(F)cc2F)N1CCN1CCOCC1 (stereo not drawn),68%
CC(=O)OCC1OC(c2ccccc2)C(OC(C)=O)C(OC(C)=O)C1OC(C)=O (stereo not drawn),48%
CCOC(=O)c1ccc(COC(=O)CNC(=O)CNC(=O)c2ccc(OC)cc2)o1,14%
COC(=O)N1CCC2(CCCN(C(=O)Nc3cccc(C#N)c3)C2)CC1,26%
O[C@H](C[C@@H]1CCCCN1)c1ccc2c(c1)oc1ccccc12,0%[5.75 µM]
CC(=O)c1c(C)cc(C)c(CSc2nc(C)cc(=O)[nH]2)c1C,10%
O=S(=O)(Nc1nc2ccccc2s1)c1ccc(Br)s1,-18%
CN(c1ccc(C(=O)NCCSCc2ccco2)cc1)S(C)(=O)=O,26%
COc1ccc(NC(=O)CSc2nnc(-c3ccccc3C)n2N)cc1,5%
O=C(Nc1ccc(NC(=O)C2CC2)nc1)c1ccncc1,-6%
CC1(C(=O)NC2CCCC2)CCC(=O)N1Cc1cccs1 (stereo not drawn),-3%
Cc1cnc(CNc2cc(-c3cccnc3)ncn2)cn1,2%
Cc1cc(NC(=O)CCC(=O)N(c2ccccc2)C2(C(=O)NC3CCCCC3)CCCC2)no1,92%
CCOC(=O)Cc1cnc(NC(=O)c2ccccc2)s1,11%
CCC(C)(C)NC(=O)C(c1ccncc1)N(Cc1cccs1)C(=O)Cn1nnc2ccccc21 (stereo not drawn),73%

# In a second layout: entries from further up.
SMILES | AmpC inh no det
CC(C)NC[C@H](O)c1ccc(NS(C)(=O)=O)cc1 | 20%
CCCC1(c2ccccc2)NC(=O)N(CC(=O)c2[nH]c(C)c(C(=O)OCC)c2C)C1=O (stereo not drawn) | 13%
Cc1c(NC(C)C)c(=O)n(-c2ccccc2)n1C | -10%[12.8 µM]
CCCCOc1ccc(-c2nc(-c3cccnc3)no2)cc1 | -5%
COc1ccc(C(=O)NCc2cccnc2)cc1S(=O)(=O)N1CCOCC1 | -12%
Cn1c(CCNC(=O)C(C)(C)C)nc2ccccc21 | -10%
Cc1c(N=C/C=C/c2ccccc2)cnn1C | 13%
COc1cc(S(=O)(=O)NCc2ccccc2)ccc1F | -4%
COc1ccc(OC)c(NC(=O)CSc2nnnn2-c2ccccc2F)c1 | -1%
COc1ccc(C(c2nnnn2C(C)(C)C)N2CCN(c3nc4ccccc4s3)CC2)cc1 (stereo not drawn) | 110%
O=C(CNC(=O)Cn1ccc2ccccc2c1=O)NCCCN1CCCCCC1 | 28%
CN(C)CCNC(CC(=O)Nc1ccc(Cl)c(Cl)c1)C(=O)O (stereo not drawn) | -9%
O=C(Nc1cccc2ccccc12)N1CCN(c2ccc(F)cc2)CC1 | -5%
O=C1c2ccccc2C(Nc2ccc(F)cc2F)N1CCN1CCOCC1 (stereo not drawn) | 68%
CC(=O)OCC1OC(c2ccccc2)C(OC(C)=O)C(OC(C)=O)C1OC(C)=O (stereo not drawn) | 48%
CCOC(=O)c1ccc(COC(=O)CNC(=O)CNC(=O)c2ccc(OC)cc2)o1 | 14%

# Compound activity: PubChem BioAssay, National Center for Advancing Translational Sciences (NCATS)
